# High-throughput results from PubChem BioAssay.
# VACV Venus inh – qHTS for Stage-Specific Inhibitors of Vaccinia Orthopoxvirus: Venus Reporter Primary qHTS; Vaccinia virus Venus reporter expression, fluorescence; Potency, µM (highest dose often 36.5 µM), for the others: at the highest dose activity change, negative = inhibition, actives largely listed as inhibitors; 330,000 tested, 0.46% active; active means well fitted inhibition curve with a large enough effect; inconclusive means small, poorly fitted or top-dose-only effect; inactive means no such curve, though single readings can be large or run the other way; tested in A549 cells; further: nearly all actives have a fitted effect of over 30% in size; inactives centre near -10
# Vaccinia mCherry – qHTS for Stage-Specific Inhibitors of Vaccinia Orthopoxvirus: mCherry Reporter Primary qHTS; Vaccinia virus mCherry reporter infection, fluorescence; about a quarter of the inactives have no number; Potency, µM (doses to about 36.5 µM), for the others: at the top dose activity change, negative = inhibition, most hits filed as inhibitors; 310,000 tested, 0.63% active; active = well fitted inhibition curve with a large enough effect; inconclusive = small, poorly fitted or top-dose-only effect; inactive = no such curve, though single readings can be large or run the other way; tested in A549 cells; further: nearly all actives have a fitted effect of over 35% in size; inactives centre near -10
# * marks the source's active call; other numbers are inactive results; i = inactive; ? = inconclusive; / = not tested or not shown; & = joins results of further samples; [ ] = another dose, or the depositor's remark. On the % scale 0 is the no-effect control and ±100 the full control effect; potency means the concentration at half of the fitted maximal effect. Rows are unselected. Share with any hit: about 0.82%.
SMILES,VACV Venus inh,Vaccinia mCherry
Cc1ccc(S(=O)(=O)/N=C(/NC(=S)Nc2cccc(C)c2)c2ccccc2)cc1,-9.3%,i
COc1ccc(-c2cc(-c3ccc(Br)cc3)nc3ncnn23)cc1OC,-4.4%,-9.8%
CCOc1ccc(N2C(=O)CN(CC(=O)OC)C2=S)cc1,-8.4%,i
COc1cc(C(=O)N2CCC(c3nc4ccccc4o3)CC2)cc(OC)c1OC,-8.0%,0.5%
CC(C)NC(=O)OC1CC2CC1[C@H]1CCCCN1C2=O (some centres undefined),-4.2%,29.7%
NC(=O)N/N=C/C=C/c1ccc(F)cc1,-11.8%,i
CSc1ccc(CN2CCC(Oc3cccc(C(=O)N4CCCC4)c3)CC2)cc1,-23.4%,-0.5%
COc1ccc(NC(=O)Cn2c(=O)n(-c3ccc(CC(=O)NCC4CCCO4)cc3)c(=O)c3ccccc32)c(OC)c1 (centres undefined),0.0%,1.6%
CC(=O)c1c(O)c2ccccc2n(C)c1=O,-3.3%,i
O=C(c1cccc(F)c1)N1CCN(c2cccc(Cl)c2)CC1,?,?
CC(=O)c1ccc(S(=O)(=O)Nc2cc3c(cc2C(C)=O)OCO3)cc1,6.5%,i
CCOc1cc(C)cc2oc(=O)c3c(c12)CCCC3,-16.4%,1.3%
COc1cccc(C(O)c2nc3ccccc3n2C(C)C)c1OC (centres undefined),-3.5%,i
COc1ccc(C2=Nc3ccccc3N(C(=O)c3ccncc3)C2C(=O)NC(C)C)cc1 (centres undefined),-16.0%,-14.8%
Cc1[nH]nc(SCC(=O)Nc2ccc(C#N)cc2)c1[N+](=O)[O-],-10.6%,-17.3%
Cc1ccc(S(=O)(=O)C[C@@H]2OC3CCCCC3N2S(=O)(=O)c2ccc(C)cc2)cc1 (some centres undefined),-17.1%,?
Cc1ccc(-c2nc(-c3ccncc3)no2)cc1Cl,-2.2%,-15.2%
COC(=O)C1=C(C)N(Cc2ccccc2)C(=O)N[C@H]1c1cccs1,-4.8%,i
CCCCCCCCCCCCCCCC(=O)C1=C(O)C(CO)OC1=O (centres undefined),-10.9%[60.7 µM],i
COc1cccc(C(CNC(=O)C(c2ccccc2)c2ccccc2)N(C)C)c1 (centres undefined),-6.2%,?
Cc1cc(=O)oc2cc(NC(=O)c3cccc(Br)c3)ccc12,-8.8%,-11.8%
Cc1ccc(NC(=O)CCOc2ccccc2)c(C)c1,-9.5%,i
CSc1nc(-c2ccco2)cc(C(F)(F)F)c1C#N,-6.6%,-6.2%
CCOc1ccc(CN(C)C(=O)c2cccnc2SC)cc1OC,-18.1%,i
CN(C)S(=O)(=O)c1ccc(S(=O)(=O)N(Cc2ccco2)Cc2ccccc2Cl)cc1,2.5%,-5.8%

# Next part:
SMILES,VACV Venus inh,Vaccinia mCherry
Cc1cccn2c(=O)c3cc(C(=O)NCCN4CCOCC4)c(=N)n(Cc4ccc(F)cc4)c3nc12,-13.7%,-3.9%
COc1ccc(C(C)(O)c2nc(-c3ccc(OC)nc3)cs2)cc1 (centres undefined),-20.4%,?
O=C(Nc1ccccc1C(F)(F)F)N1CCCC1c1cccnc1 (centres undefined),-7.7%[7.34 µM],-3.6%[7.34 µM]
CC1=Nc2ccc(C)cc2/C1=C/c1c(N)n2c(S(=O)(=O)C(C)C)nsc2nc1=O,-10.8%,i
Cc1cc(C(=O)COC(=O)CNC(=O)c2ccco2)c(C)n1Cc1ccco1,-8.5%,i
O=C(N/N=C/c1ccco1)C1CC1,-8.3%,i
CC(C)CCN1C(=O)c2ccccc2CC1(C)C(=O)NC1CCCCC1 (centres undefined),-6.1%,-7.9%
Oc1ccc2c3c1OC1[C@H](O)CC[C@@]4(O)[C@@H](C2)N(CC2CC2)CC[C@]314 (some centres undefined),-4.5%&-15.0%,i
COc1ccc(NC(=O)c2c(N)c(C(=O)c3ccc(C)cc3)n3ccccc23)cc1OC,-20.3%,-0.6%
Cn1c(NCc2ccc3occc3c2)nc2cc(-c3cccc(C(F)(F)F)c3)sc2c1=O,?,?
CCCCC[C@H]1CCCCC[C@@H](O)C[C@H](O)[C@H](O)/C=C/C(=O)O1,-25.3%,-2.1%
Brc1ccccc1/C=N/Nc1ccccn1,-10.1%,3.6%
C[C@@H]1CN([C@@H](C)CO)C(=O)c2cccc(NS(C)(=O)=O)c2O[C@H]1CN(C)C(=O)Nc1ccc(F)cc1,7.8%,-14.1%
CCn1nccc1C(=O)Nc1ccc(Cl)cc1Cl,-8.4%,i
O=C(Nc1ccc(Cl)cc1C(=O)NCCN1CCOCC1)c1ccco1,-5.0%,-24.5%
O=C1CC(c2ccco2)c2ccc3ccccc3c2N1 (centres undefined),?,/
CCN(CC(=O)Nc1c(F)cccc1F)C(=O)CNC(=O)c1ccc(C)s1,-9.5%,-24.8%
CCCCCCC[C@@H](C/C=C/CCC(=O)N(C)C/C(=C/Cl)C/C(=C\C(=O)N1C[C@H](O)CC1=O)OC)OC,?,-14.8%
CCc1nc2c(OCc3ccc(C(F)(F)F)cc3)cccn2c1N(C)C(=O)c1ccncc1,4.1%,27.6%
COC(=O)c1cccc(NC(=O)/C(=C\c2ccco2)NC(=O)c2ccco2)c1,1.4%,i
Cc1ccc(Cn2c(CCNc3nc(-c4ccc(C)cc4)cs3)nc3cc(C(=O)NCCCO)ccc32)cc1,-20.7%,-22.5%
O=C(NN1C(=O)C2C3C=CC(C4CC34)C2C1=O)c1ccc(Br)cc1 (centres undefined),-10.8%,-11.9%
COc1ccc(CN(C)C(=O)c2ccncc2)c(OC)c1,-7.3%,-8.1%
CCOC(=O)c1cccc(NC(=O)C(NS(=O)(=O)c2ccc3c(c2)CCN3C(C)=O)C(C)C)c1 (centres undefined),5.8%,-10.9%
CC(=O)OC1CCC2(C)C(COc3ccc4ccc(=O)oc4c3)C(C)(O)CCC2C1(C)C (centres undefined),-25.6%,-9.9%[1.46 µM]

# Gathered by group, the compounds so far containing a cyano group.
SMILES,VACV Venus inh,Vaccinia mCherry
Cc1[nH]nc(SCC(=O)Nc2ccc(C#N)cc2)c1[N+](=O)[O-],-10.6%,-17.3%
CSc1nc(-c2ccco2)cc(C(F)(F)F)c1C#N,-6.6%,-6.2%

# In the list so far, four have two or more sulfur atoms.
SMILES,VACV Venus inh,Vaccinia mCherry
Cc1ccc(S(=O)(=O)/N=C(/NC(=S)Nc2cccc(C)c2)c2ccccc2)cc1,-9.3%,i
Cc1ccc(S(=O)(=O)C[C@@H]2OC3CCCCC3N2S(=O)(=O)c2ccc(C)cc2)cc1 (some centres undefined),-17.1%,?
CN(C)S(=O)(=O)c1ccc(S(=O)(=O)N(Cc2ccco2)Cc2ccccc2Cl)cc1,2.5%,-5.8%
CC1=Nc2ccc(C)cc2/C1=C/c1c(N)n2c(S(=O)(=O)C(C)C)nsc2nc1=O,-10.8%,i

# The listing continues.
SMILES,VACV Venus inh,Vaccinia mCherry
CC(C)c1ccc(NC(=S)Nc2ccc3cn[nH]c3c2)cc1,-13.9%,-6.9%
COc1ccc(NC(=O)CCc2nnc3n(C)c(=O)c4sccc4n23)cc1,-2.4%,-4.6%
COc1ccc(NC(=O)C2CCN(S(=O)(=O)c3ccccc3)CC2)cc1,-23.2%,-13.3%
CCOc1ccc(/C(O)=C2/C(=O)C(=O)N(CCCN3CCOCC3)C2c2ccc(F)cc2)cc1C (centres undefined),-14.8%,i
N#C/C(=C(/O)COc1ccccc1)c1nnc2n1CCCCC2,-8.6%,-0.2%
Cc1c(-c2nc(-c3ccc4c(c3)[nH]c(=O)n4C)no2)cccc1[N+](=O)[O-],0.1%,1.8%
CCOC(=O)CCCNC(=O)CSc1nnc(-c2ccccc2)c(-c2ccccc2)n1,-1.0%,3.8%
O=C(CCN1C(=O)COc2ccccc21)NCc1cccnc1,-8.5%,-14.4%
CN(C)C(CNC(=O)c1ccccc1C(F)(F)F)c1ccco1 (centres undefined),3.9%,-9.9%
CC(Sc1ncccn1)C(=O)NNC(=O)c1cccc(Cl)c1 (centres undefined),-12.0%,-10.6%
C=CCOC(=O)/C(=C/c1cccc2ccccc12)NC(=O)c1ccccc1,-23.2%,?
Nc1ccc(C(=O)N2CCN(S(=O)(=O)c3ccc4c(c3)OCCO4)CC2)cc1[N+](=O)[O-],-23.1%,-20.3%
O=C(/C=C1\NC2(CCCC2)Cc2ccccc21)C(=O)N/N=C/c1ccccc1O,?,12.6µM*
Cc1ccc(S(=O)(=O)N(CC2CO2)c2cccc([N+](=O)[O-])c2)cc1 (centres undefined),-21.3%,-15.1%
CCCCC(=O)NC1(C(F)(F)F)C(=O)Nc2c1c(=O)[nH]c(=O)n2-c1ccc(C)c(C)c1 (centres undefined),-2.4%,-4.0%
O=C1NCC(=O)N2C(c3ccccc3)c3[nH]c4ccccc4c3C[C@@H]12 (some centres undefined),-7.3%,-5.2%
COc1ccc(C/C(C)=N/NC(=S)Nc2ccc(C)c(C)c2)cc1,0.6%,-12.7%
CC(C)C(=O)Nc1cc(-c2nc3ncccc3o2)ccc1Cl,-13.3%,-8.0%
CCOC(=O)CN1N=C(/C=C/c2ccc(C(C)C)cc2)CCC1=O,-6.5%,i
CCN(Cc1ccncc1)Cc1nc(CC2CC2)no1,-10.9%,-19.3%
Cc1cnc(SCc2cnc(C)nc2N)nc1,-7.9%,-2.7%
CC(C)c1ccc(NC(=O)CN2C(=O)COc3ccc(S(=O)(=O)N4CCCCC4)cc32)cc1,-15.1%,-12.3%
CCc1ccccc1Oc1nc(NC(C)C)nc2ccsc12,-0.8%,i
Cn1ncc2c(Nc3ccc(Br)cc3)nc(Nc3ccc(Br)cc3)nc21,?,?
CCOc1ccc(OCC)c(S(=O)(=O)NCCCN2CCOCC2)c1,-3.3%,/

# Reformatted as labelled records: two of the compounds above.
structure: CCc1ccccc1Oc1nc(NC(C)C)nc2ccsc12
  VACV Venus inh: -0.8% | Vaccinia mCherry: i
structure: Cn1ncc2c(Nc3ccc(Br)cc3)nc(Nc3ccc(Br)cc3)nc21
  VACV Venus inh: ? | Vaccinia mCherry: ?

# More compounds.
SMILES,VACV Venus inh,Vaccinia mCherry
CCN(CC)CCNC(=O)c1cc2c(=O)n(C)c3ccccc3c2s1,-17.9%,-23.3%
COc1ccsc1C(=O)N1CCN(Cc2ccc3c(c2)OCO3)CC1,1.1%,-6.3%
CCOc1ncccc1C(=O)NNC(=O)c1cccc(S(=O)(=O)Nc2ccccc2OC)c1,-10.3%,i
Cc1cc2c(ncn2Cc2ccccc2)c(NS(C)(=O)=O)c1C,-17.9%,-16.8%
S=C(NCc1ccccc1)Nc1ccncc1,-17.5%,-21.2%
CCOCCCNC(=O)c1cc(Sc2ccc(C)cc2)nc2ccccc12,-18.6%,-27.7%
CCN(CC)C(=O)C(=O)Nc1ccc(Oc2ccccc2)cc1,-2.1%,-8.8%
COC(=O)c1nc2nc(-c3cccs3)cc(C(F)(F)F)n2n1,-3.6%,i
COc1ccc(CNC(=O)c2cc(S(=O)(=O)N3CCOCC3)cn2C)cc1,-7.9%,-7.3%
CC(C)(C)C1CCC(OC(=O)CN2CCOCC2)CC1 (centres undefined),-19.1%,-7.8%
c1ccc(-c2csc(N3CCN(c4ccccn4)CC3)n2)cc1,-9.2%,-18.1%
CN(CC(=O)Nc1ccc(F)cc1)CC(=O)N1CCCC1,-13.6%,-14.7%
O=C(CCC1CCCN(C(=O)c2ccc3c(c2)OCO3)C1)N1CCN(c2ccccn2)CC1 (centres undefined),-16.9%,-0.1%
CC(C)C(C(=O)NC1CCCC1)N1CCN(c2ncccc2C#N)CC1 (centres undefined),1.7%,-0.5%
